AF4-AF9 inh: blocks AF4 peptide binding to human AF9. P42568. AlphaScreen, biotin-AF4 peptide binding to FLAG-AF9. inhibition, % at 10 µM. hit rate 0.47% among 350,000;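 active = every replicate reaching a set inhibition limit, whatever the replicate mean, cut at about 25% in these data; inconclusive = mean inhibition reaches that limit but some replicates miss it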;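 also: 0% = plate neutral control median and 100% = total signal loss; the record names both 10 and 1 µM as test concentration; the first replicate is given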
RanGTP-Impb inh: inhibitors of RanGTP-importin-beta interaction, primary screen, biochemical, FRET, CFP-Ran, YFP-importin-beta, homogeneous; inhibition, % (test concentration not listed); hit rate 1.1% among 300,000; cell-free CFP-Ran/YFP-importin-beta FRET ratio;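 active = most replicates above 15%; inconclusive = exactly half above 15%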;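 also: 0% = DMSO wells and 100% = Ran loaded with GDP instead of GTP; wells of about 40 µL received 100 nL stock; the first replicate is given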
Vif TR-FRET: HIV-1 Vif–A3G interaction blockers – biochemical, TR-FRET, GST-Vif 1-94, biotin-A3G peptide, dose response retest, primary screen (AID 1117319). inhibition, %; hits with a dose series show IC50 in µM. hit rate 0.57% among 260,000. TR-FRET GST-Vif / biotin-A3G peptide binding; higher % means a stronger effect; test concentration not given here; strong numbers were not always called active;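 active = above the screen mean plus three standard deviations and confirmed in dose response; inconclusive = results disagree or hit not tested in dose response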;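 also: Vif residues 1-94 fused to GST binding biotinylated APOBEC3G peptide 110-148; 0% = full assay without inhibitor and 100% = GST in place of GST-Vif; retest series ran down from 100 µM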
FGF22 binding: binders of recombinant human FGF22 by thermal shift; SYPRO orange fluorescence; percent of sucrose octasulfate shift, DMSO zero; calls only at 9.99 µM; hit rate 1.5% among 340,000; AID 651658;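 active = melting point raised past a set limit in the mean and every replicate; inconclusive = no clear call; three in four hits are not shown here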
Target sequence (Q9HCT0 whole entry, looked up): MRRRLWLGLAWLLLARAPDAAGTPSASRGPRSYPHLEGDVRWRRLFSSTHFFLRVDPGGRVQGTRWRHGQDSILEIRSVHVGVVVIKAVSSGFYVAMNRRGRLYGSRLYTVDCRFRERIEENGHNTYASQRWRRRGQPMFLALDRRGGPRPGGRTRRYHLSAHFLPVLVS
E coli growth: E. coli growth inhibition. Escherichia coli growth, OD600, 23 h; stronger effect = lower value. OD600 absorbance (no concentration beside the values). hit rate 0.21% among 330,000;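 active = OD600 absorbance below the run mean of sample wells minus 3.6 SD, in any replicate, cut at about 0.56 in these data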;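 also: stock transfer was 300 nL into about 60 µL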
UCH37 DUB inh: blocks the human deubiquitinase UCH37; Q9Y5K5; purified proteasome/UCH37, Ub-AMC cleavage fluorescence; inhibition, % (concentration not given with the values); hit rate 0.33% among 330,000;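 active = mean of two replicates above 20%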;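 also: 0% = compound-free wells with enzyme and 100% = wells lacking proteasome; stock transfer was 100 nL into about 20 µL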
Target sequence (Q9Y5K5 whole entry, looked up): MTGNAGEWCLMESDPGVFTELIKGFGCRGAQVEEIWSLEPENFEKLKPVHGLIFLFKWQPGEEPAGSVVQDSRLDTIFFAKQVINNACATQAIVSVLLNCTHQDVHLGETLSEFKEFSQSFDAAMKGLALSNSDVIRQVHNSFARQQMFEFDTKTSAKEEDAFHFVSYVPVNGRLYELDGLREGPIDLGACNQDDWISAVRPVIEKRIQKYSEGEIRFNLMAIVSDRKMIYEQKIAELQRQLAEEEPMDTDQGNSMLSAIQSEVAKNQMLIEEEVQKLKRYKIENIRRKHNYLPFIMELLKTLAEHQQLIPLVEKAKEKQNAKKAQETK
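Signal – fluorescence, ex 355 nm, em 460 nm · System – Proteasome-bound UCH37 · Input – 0.15 nM proteasome as dispensed · Timing – 30 min preincubation with enzyme, 25 min cleavage at room temperature · Read-out basis – percent inhibition of cleavage signal versus uninhibited and no-proteasome wells · Medium – Tris-HCl pH 7.4 with ATP-MgCl2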
HNF4A DNA FP: change in binding of human HNF4 alpha to DNA. P41235. HNF4a-FITC DNA binding, fluorescence polarization, 1 h. activity change, % at 10 µM. hit rate 0.3% among 360,000; in the data active = activity change above about 30%, passing the limit was not always enough;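 also: controls were the assay level and a saturating level of protein; the project sought stronger binding though the title names inhibitors; some compounds called inactive have numbers as strong as hits; positive values seem to mean higher polarization but the record does not say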
Target sequence (P41235 whole entry, looked up): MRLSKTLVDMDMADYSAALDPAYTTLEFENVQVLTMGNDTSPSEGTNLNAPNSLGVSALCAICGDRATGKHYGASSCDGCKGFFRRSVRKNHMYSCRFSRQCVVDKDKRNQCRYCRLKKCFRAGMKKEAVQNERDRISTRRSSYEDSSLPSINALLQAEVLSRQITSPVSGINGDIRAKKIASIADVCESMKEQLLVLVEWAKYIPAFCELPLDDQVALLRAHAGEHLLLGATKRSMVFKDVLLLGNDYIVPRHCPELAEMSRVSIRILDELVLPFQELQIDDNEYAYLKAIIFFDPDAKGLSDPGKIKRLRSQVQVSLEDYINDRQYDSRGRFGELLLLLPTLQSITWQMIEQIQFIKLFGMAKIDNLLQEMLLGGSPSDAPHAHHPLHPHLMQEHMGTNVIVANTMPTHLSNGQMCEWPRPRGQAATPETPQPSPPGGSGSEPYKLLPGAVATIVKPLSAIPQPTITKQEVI
Starred values were filed as active, the others as inactive; i = inactive; ? = inconclusive; nt = no result given; + = active, no number; & = joins results of further samples.

mol,AF4-AF9 inh,RanGTP-Impb inh,Vif TR-FRET,FGF22 binding,E coli growth,UCH37 DUB inh,HNF4A DNA FP
Cc1ccc(C(=O)NC(=S)NCC(=O)c2ccccc2)cc1,nt,2.5,-11%,nt,0.7,2.4,1.1
CCOc1ccc(S(=O)(=O)NC(Cc2cnc[nH]2)C(=O)O)cc1 (stereo not drawn),-1.6,-0.7,24%,nt,0.7,0.5,-3.1
CCN(C(=O)CSc1ccc2ccccc2c1)C1CCS(=O)(=O)C1 (stereo not drawn),4.9,2.1,nt,i,0.69,3.7,2.4
O=C(O)C1CCCN(S(=O)(=O)c2cccs2)C1 (stereo not drawn),nt,-1.1,1%,nt,0.68,2.2,2.9
CCN1C(=O)[C@@H]2[C@@H](c3ccc(-c4ccc(Cl)c(Cl)c4)cc3)N3CCCC[C@@]3(C(=O)OC)[C@@H]2C1=O,-31,-5.3,nt,i,nt,-2.6,0.3
Cc1ccc(/C=C/C(=O)OCC(=O)NC(C)c2ccccc2)o1 (stereo not drawn),-0.3,nt,2%,i,0.71,9.5,-5.2
COc1ccc(OCCC(=O)Nc2cc3c(cc2C(=O)O)OCCCO3)cc1,-5.2,nt,-2%,i,0.66,-2.0,-0.8
COc1ccc(/C=N/NC(=O)c2ccoc2C)cc1COc1ccc(Cl)cc1,nt,2.6,19%,nt,nt,nt,1.2
CC(=O)N1CC2(CC(c3ccc(Cl)cc3Cl)=NO2)CN1c1cccc(Cl)c1 (stereo not drawn),-0.7,nt,0%,i,nt,nt,0.6
CCCNC(=O)NC(=O)CSc1ccc(C)cc1C,0.1,1.3,3%,i,0.72,1.1,-0.7
COc1ccc(-c2ccc(-c3nnn(CC(C)=O)n3)cc2)cc1,nt,-3.1,-3%,nt,0.71,-1.9,1.0
O=C(NC1CCC(O)CC1)c1cc(-c2ccc(Cl)cc2)nc2ccccc12 (stereo not drawn),0.3,nt,28%,i,0.67,-9.7,-3.1
COc1ccccc1N=C1SC(C(=O)Nc2ccc(F)cc2)CC(=O)N1C (stereo not drawn),nt,1.3,7%,nt,0.75,-1.0,-1.2
N#CCn1c2ccccc2c2nc3ccccc3nc21,1.2,0.8,-12%,i,0.75,-102,3.1
COc1ccc(CCNC(=O)c2cc3c(=O)n4ccccc4nc3n(CCCN3CCOCC3)c2=N)cc1OC,4.2,16*,nt,i,nt,nt,1.5
O=C(Nc1cc(F)cc(F)c1)c1ccc(NCCc2ccccc2)c([N+](=O)[O-])c1,nt,4.9,nt,nt,nt,2.4,115
CCOC(=O)CSc1nncc2ccc(OC)c(OC)c12,nt,-5.8,58%,nt,0.66,5.5,3.7
CCC(C)Sc1nc2ccccc2c(=O)[nH]1 (stereo not drawn),nt,-0.6,2%,nt,0.66,2.0,-2.1
CC1(C(=O)NS(=O)(=O)c2ccc(F)cc2F)CCN1C(=O)CCc1ccccc1 (stereo not drawn),-2.7,nt,nt,i,nt,nt,-0.1
Cc1ccc(SCC(=O)NNC(=O)c2cncc(Br)c2)cc1,0.4,nt,-5%,i,0.69,3.9,1.8
CC(C)COC(=O)C(C)Nc1n[nH]c(=S)[nH]c1=O (stereo not drawn),-6.4,-3.5,0%,i,0.71,1.5,0.2
Cc1onc(-c2ccccc2Cl)c1C(=O)N1CCN(C)CC1,0.3,1.4,nt,i,0.71,0.3,-1.7
Cn1c(=O)c2c(SCC(=O)N3CCOCC3)nc(C3CC3)nc2n(C)c1=O,7.1,3.4,3%,i,0.8,5.5,-1.9
Cc1ccc(NC(=S)Nn2cnnc2)cc1,-11,-2.0,-2%,i,0.69,2.8,2.5
CCCN(CC(=O)Nc1ccccc1OC)C(=O)c1cccc(S(=O)(=O)Nc2ccc(OC)cc2)c1,2.1,0.1,6%,i,0.69,0.1,0.2

Going on with the list.
mol,AF4-AF9 inh,RanGTP-Impb inh,Vif TR-FRET,FGF22 binding,E coli growth,UCH37 DUB inh,HNF4A DNA FP
COc1cc(/C=N/NC(=S)Nc2cccc(S(=O)(=O)N(C)C)c2)ccc1O,nt,3.0,-1%,nt,nt,nt,3.5
Cc1cccc(-n2c(-c3csc(C)c3)n[nH]c2=S)c1,-19,4.1,-5%,i,0.72,-2.2,-0.2
CCCCOC(=O)CNc1n[nH]c(=S)[nH]c1=O,nt,0.2,-17%,nt,0.66,4.1,9.0
Cc1ccc(CNC(=O)C2CC(=O)N(c3ccc(OCC(=O)N4CCCC4)cc3)C2)cc1 (stereo not drawn),nt,-4.5,0%,nt,0.74,-0.8,2.1
COc1cc(NC(=O)CSc2ncccc2C(=O)OC(C)C)cc(OC)c1,nt,2.0,3%,nt,0.68,4.6,2.8
CCOc1ccc(NC(=O)C2CC(C)=C(C)CC2C(=O)O)cc1 (stereo not drawn),nt,0.6,3%,nt,0.73,-3.0,-5.0
O=[N+]([O-])c1ccccc1S(=O)(=O)N1CCN(Cc2ccccc2)CC1,7.0,0.0,nt,i,0.69,-1.1,4.2
COc1ccc(/C=C/C(=O)OCC(=O)Nc2ccc(N3CCOCC3)cc2)cc1,-0.1,4.2,nt,i,0.65,0.7,0.8
Cc1ccc(CCC(=O)Nc2ccc(C#N)cc2)o1,4.9,-0.6,nt,i,0.69,5.7,6.4
CCc1noc(C)c1C(=O)OCC(=O)Nc1c(F)cccc1F,0.0,-0.8,6%,i,0.64,-1.6,0.0
CCOc1ncccc1C(=O)N1CCN(C(c2ccccc2)c2ccccc2)CC1,3.9,?,-4%,i,0.69,2.7,-1.4
CN(CC(=O)Nc1cccc(F)c1)C(=O)/C=C/c1ccc(Br)s1,1.4,-4.7,4%,i,0.68,-5.2,4.1
Cc1cc(C)c2c(=O)c(C#N)coc2c1,-3.3,-2.6,-4%,i,0.65,6.0,0.1
Cc1ccc(-c2nc(=S)c3c(n2Cc2ccco2)CCCC3)cc1,nt,nt,14%,nt,0.68,-0.3,0.1
CCC(CC)c1nnc(NC(=O)Cc2ccccc2[N+](=O)[O-])s1,0.1,6.2,nt,i,0.68,2.0,1.3
O=C1OC(Nc2ccc(Cl)cn2)c2ccccc21 (stereo not drawn),nt,5.3,-4%,nt,0.71,1.4,-1.9
O=C1OC(c2ccc3ccccc3c2O)(c2ccc3ccccc3c2O)c2ccccc21,10,nt,9.4µM*,i,0.7,26*,-13
O=C(c1cccs1)N1CCC(c2nc3c(nnn3Cc3c(Cl)cccc3Cl)c(=O)[nH]2)CC1,-0.5,2.0,nt,i,0.71,4.1,0.7
COc1cc2oc(=O)cc(-c3ccc(-c4ccc(N(C)C)cc4)cc3)c2c(OC)c1OC,-11,nt,-2%,i,0.73,-28,11
C=C1[C@H](C)CN[C@H]1CCO,0.2,nt,-7%,i,0.67,-0.4,1.7
Cc1cc(Br)c(S(=O)(=O)NCCN2CCOCC2)cc1C,nt,4.5,-1%,nt,0.69,3.7,-3.8
CCOC(=O)C1=C(N)Oc2ccc3ccccc3c2C1c1ccc(O)c(OC)c1 (stereo not drawn),2.4,29*,-1%,i,0.68,3.7,0.2
CC1CCCCN1C(=O)c1cc(S(=O)(=O)N2CCOCC2)ccc1Cl (stereo not drawn),-0.9,nt,nt,i,0.73,0.0,-0.8
CCCCn1nnnc1C1(C)CCC(=O)N1Cc1ccc(F)cc1 (stereo not drawn),-0.2,nt,nt,i,nt,nt,2.2
CCN(c1ccccc1)S(=O)(=O)c1ccc(Cl)c(NC(=O)Nc2ccc(Cl)cc2C#N)c1,1.5,7.2,16%,i,0.7,-4.2,1.4

(more compounds)
mol,AF4-AF9 inh,RanGTP-Impb inh,Vif TR-FRET,FGF22 binding,E coli growth,UCH37 DUB inh,HNF4A DNA FP
CCCCC(=O)N(CCOC)c1nnc(-c2ccccc2C)s1,-7.2,24,-4%,i,0.7,-0.9,-1.5
O=C(Nc1ccccn1)c1cccc(S(=O)(=O)N2CCCC2)c1,-0.5,2.4,nt,i,0.73,0.7,-1.9
COC(=O)c1ccc(CSc2nc3sc4c(c3c(=O)n2C)CCCC4)o1,nt,-2.0,18%,nt,0.72,3.4,2.6
O=C(O)c1ccc(CN2C(=O)CSC2=S)cc1,nt,-4.1,5%,nt,0.63,4.5,2.1
Cc1ccc(S(=O)(=O)NCCC(=O)N2CCCC(C)C2)cc1 (stereo not drawn),-0.5,2.1,-5%,i,0.7,1.0,3.3
O=C(CCCn1c(=S)[nH]c2cc3c(cc2c1=O)OCO3)N1CCN(c2ccc(F)cc2)CC1,nt,4.0,-5%&10%,nt,0.69,4.1,-0.7
Cc1ccc2c(c1)N(CCC(=O)NC1CC1)C(=O)C(C)O2 (stereo not drawn),nt,?,19%,nt,0.71,0.6,0.5
COc1ccc(C2C(C(=O)c3ccccc3)=C(C)Nc3nc4ccccc4n32)c(OC)c1 (stereo not drawn),-7.0,2.9,-3%,i,0.74,3.1,0.4
O=C(CSc1ncn[nH]1)Nc1nc(-c2ccccc2)ns1,nt,-1.3,63%,nt,0.61,2.8,10
O=C1C2C3CCC(O3)C2C(=O)N1c1cc(OCC(F)F)cc([N+](=O)[O-])c1 (stereo not drawn),0.1,nt,-1%,i,0.69,3.3,4.0
Cc1noc(C)c1C(=O)NC(C)c1ccc(Cl)cc1Cl (stereo not drawn),2.5,7.7,8%,i,0.68,2.4,0.5
CN(C)CCN1CCN(C2CN(Cc3cn(Cc4ccccc4C(F)(F)F)nn3)S(=O)(=O)C2)CC1 (stereo not drawn),0.1,nt,nt,+,nt,nt,1.1
COc1ccccc1CN1CC(C(=O)N(CCO)Cc2cccs2)CCC1=O (stereo not drawn),8.6,-1.8,0%,i,0.7,2.3,0.0
O=C(Nc1ccccc1)N(CCc1nc2ccccc2[nH]1)C1CCCC1,nt,3.2,9%,nt,0.66,2.3,1.7

One compound at a time, from the list above. Screens in order: AF4-AF9 inh | RanGTP-Impb inh | Vif TR-FRET | FGF22 binding | E coli growth | UCH37 DUB inh | HNF4A DNA FP
O=C(CCCn1c(=S)[nH]c2cc3c(cc2c1=O)OCO3)N1CCN(c2ccc(F)cc2)CC1 reads nt | 4.0 | -5%&10% | nt | 0.69 | 4.1 | -0.7
O=C(Nc1ccccn1)c1cccc(S(=O)(=O)N2CCCC2)c1 reads -0.5 | 2.4 | nt | i | 0.73 | 0.7 | -1.9
COC(=O)c1ccc(CSc2nc3sc4c(c3c(=O)n2C)CCCC4)o1 reads nt | -2.0 | 18% | nt | 0.72 | 3.4 | 2.6
CN(C)CCN1CCN(C2CN(Cc3cn(Cc4ccccc4C(F)(F)F)nn3)S(=O)(=O)C2)CC1 (stereo not drawn) reads 0.1 | nt | nt | + | nt | nt | 1.1

High-throughput results (PubChem BioAssay)

Only part of the results is shown. The share of hits here may be higher or lower than overall.
